Assay outcomes: PubChem BioAssay, National Center for Advancing Translational Sciences (NCATS)
Sfp inh: inhibitors of Bacillus subtilis Sfp phosphopantetheinyl transferase | Q9F4F7 | 3.5% of 310,000 active | Potency, µM, without a hit: max response, negative = inhibition, most hits filed as inhibitors | AID 1490 | Biochemical Sfp PPTase activity, qHTS; active = well fitted inhibition curve with a large enough effect; inconclusive = small, poorly fitted or top-dose-only effect, or another doubt; inactive = no such curve, though single readings can be large or run the other way;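 also: the enzyme is Sfp with the accession as filed and its product quenches rhodamine fluorescence; potency is read from the fitted curve at half-maximal effect; 0% = enzyme reaction without inhibitor and -100% = no enzyme wells; top concentration of the series not given in the record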
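Compounds were incubated with enzyme (final 15 nM) for 15 min at room temperature before substrate addition started the reaction. Fluorescence at 525 nm excitation, 598 nm emission was recorded immediately and after 30 minutes.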
CtBP-E1A inh: CtBP/E1A binding inhibition | AID 651724 | activity change, % (no concentration beside the values) | 0.49% of 340,000 active | AlphaScreen GST-E1A/His-CtBP binding, 1536-well; hits give low values; control for the full effect not named in the record; in the data active means activity change below about -65%; inconclusive means about -30% to -65%; inactive means above about -30%; also: % is scaled to controls: 0 for no effect and ±100 for the full control effect; compound concentration not given in the record
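Steps: dispense buffer (Tris pH 8.0, NaCl 300 mM, TCEP 1 mM, BSA, Tween 20); add 5X protein mix (GST-E1A, His-CtBP, 125 nM each); pin 23 nL compound; 2 h at 37 °C, dark; add 5X beads (50 ug/mL); 1 h; read.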
D2 ag: activates the human D2 dopamine receptor; DiscoveRx PathHunter D2 beta-arrestin, luminescence, 90 min; 100% = 57 uM dopamine signal; activation, % (concentration not given with the values); 0.084% of 360,000 active; in the data active = activation above about 40%; inconclusive = about 15% to 40%; inactive = below about 15%; also: compound concentration not given in the record; the text of the record calls up to 30% inactive
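Agonist mode: compounds alone added to overnight-plated D2 PathHunter cells for 90 min at 37 C, with 57 uM final dopamine (EC100) defining full response. Beta-arrestin recruitment detected by chemiluminescent reagent, read after 1 h at ambient temperature.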
PINK1 expr mod: PINK1 expression modulation; PINK1 immunofluorescence, high-content cytometry, 24 h; Potency, µM (titrated, usually from 76.6 µM), inactives show at the top dose activation (PINK1 increase), most hits filed as activators; 0.2% of 410,000 active; active = well fitted activation curve with a large enough effect; inconclusive = small, poorly fitted or top-dose-only effect; inactive = flat fitted curve, though single readings scatter; cell line not stated here;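 also: potency is read from the fitted curve at half-maximal effect; % of control where 0% means no effect; nearly all actives have a fitted effect of over 65% in size; a mitochondrial uncoupler was the plate control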
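Fluorescence from anti-PINK1 antibody, together with nuclear and cell stains, was scanned on a laser-scanning cytometer. Before staining, stable-line cells were incubated 24 hours with compounds at 5 concentrations; primary antibody 12 h at 10 degrees C.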
D2 potentiator: potentiates the human D2 dopamine receptor allosterically; P14416; DiscoveRx D2 beta-arrestin cells, luminescence, 90 min; 100% = 57 uM dopamine signal; potentiation, % (concentration not given with the values); 0.23% of 360,000 active; AID 624464; active = potentiation of 50% or more; inconclusive = 30% to 50%; inactive = 30% or less;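 also: compound concentration not given in the record; tested on top of an EC20 dose of dopamine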
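PathHunter D2 cells, attached overnight at 37 deg C, received compound in DMSO plus dopamine at EC20 (50 nM final) for 90 min at 37 deg C. Beta-arrestin recruitment was read as luminescence after 1 h with detection reagent at ambient temperature.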
Six1-Eya2 inh: Six1/Eya2 interaction inhibition | Q15475+O00167 | AlphaScreen GST-Six1/His-Eya2 binding, biochemical; hits give low values; control for the full effect not named in the record | activity change, % (test concentration not listed) | 0.56% of 360,000 active; in the data active = activity change below about -65%; inconclusive = about -30% to -65%; inactive = above about -30%; also: % is scaled to controls: 0 for no effect and ±100 for the full control effect; compound concentration not given in the record
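Six1/Eya2 binding was read as AlphaScreen signal after compounds were pinned into GST-Six1 plus His-tagged Eya2 (5X stock 250/500 nM) in pH 8.0 Tris/NaCl/TCEP buffer, beads added, then incubated 1 h, 37 C, dark.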
TRPV1 PAM: enhances activation of the human vanilloid receptor TRPV1 | TRPV1-expressing cells, Fluo-8 calcium influx, capsaicin EC20 potentiation; host cell line not named in the record; control for the full effect not named in the record | potentiation, % at 8.33 µM | 0.02% of 320,000 active; active means potentiation above 80%; inconclusive means 30% to 80%; inactive means below 30%; also: 0% is about no effect
Target sequence (Q8NER1 whole entry, looked up): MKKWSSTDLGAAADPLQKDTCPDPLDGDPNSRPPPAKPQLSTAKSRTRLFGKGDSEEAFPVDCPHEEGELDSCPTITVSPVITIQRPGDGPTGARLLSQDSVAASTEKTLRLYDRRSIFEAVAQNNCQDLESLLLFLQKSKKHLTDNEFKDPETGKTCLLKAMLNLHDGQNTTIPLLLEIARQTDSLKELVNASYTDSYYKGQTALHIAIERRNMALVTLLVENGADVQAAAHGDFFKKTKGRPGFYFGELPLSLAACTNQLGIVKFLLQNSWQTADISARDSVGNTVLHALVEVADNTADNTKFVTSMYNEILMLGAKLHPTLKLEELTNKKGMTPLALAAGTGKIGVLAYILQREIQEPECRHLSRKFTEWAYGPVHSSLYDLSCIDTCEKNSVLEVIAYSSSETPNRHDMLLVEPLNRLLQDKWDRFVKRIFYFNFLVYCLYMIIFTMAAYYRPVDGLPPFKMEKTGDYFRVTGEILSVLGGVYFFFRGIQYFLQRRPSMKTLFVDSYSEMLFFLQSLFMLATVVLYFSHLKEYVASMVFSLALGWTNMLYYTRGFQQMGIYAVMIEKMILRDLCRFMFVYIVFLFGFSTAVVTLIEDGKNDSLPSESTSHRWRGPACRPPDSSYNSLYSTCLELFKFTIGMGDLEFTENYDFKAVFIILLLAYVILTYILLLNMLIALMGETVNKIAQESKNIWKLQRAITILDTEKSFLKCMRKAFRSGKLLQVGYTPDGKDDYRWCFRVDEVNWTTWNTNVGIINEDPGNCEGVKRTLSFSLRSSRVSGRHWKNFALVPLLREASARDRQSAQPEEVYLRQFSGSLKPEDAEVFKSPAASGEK
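TRPV1-expressing cells were cultured overnight at 35.5C and loaded with Fluo-8 calcium dye for 40 to 90 min at room temperature. After a 10 s baseline, compound was added and calcium influx was read kinetically for 3 min (ex 480/em 520 nm).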
The depositor's hits bear a star; ? = inconclusive; · = not tested or not shown; [ ] = remark or other dose.

structure	D2 potentiator	D2 ag	CtBP-E1A inh	PINK1 expr mod	Sfp inh	Six1-Eya2 inh	TRPV1 PAM
C=CCN1C(=O)C2C(C(=O)NCc3ccccc3)C3C=CC2(O3)C1C(=O)NC(C)(C)C (stereo not drawn)	-12	0.1	0	1.0%	-2%	2	11
C=CC[C@@H](CC(=O)NCCO)C(=O)NC[C@H](OC(=O)[C@@H](CC=C)Cc1ccc(F)cc1)c1ccccc1	25	14	·	0.7%	·	2	·
COc1ccc(S(=O)(=O)N(C)C[C@@H]2OCc3cn(nn3)CCCC(=O)N([C@H](C)CO)C[C@H]2C)cc1	-3	-5.5	10	-0.3%	·	9	·
CCn1cc(S(=O)(=O)CC(=O)Nc2ccc(OC)cc2)c2ccccc21	-24	-3.1	-15	-0.4%	14%	5	8
O=C(C[C@H]1C(=O)N(Cc2ccccc2)C[C@@H]1Cc1ccccc1)Nc1ccc(Br)cc1	·	-3.2	-6	22%	·	1	·
CCOC(=O)C1CCN(C(=O)c2ccc(NS(=O)(=O)c3ccc(F)cc3C)cc2)CC1	-6	-1.1	8	-0.3%	5%	-7	18
CC1(C(=O)NS(=O)(=O)c2ccc(C#N)cc2)CCN1C(=O)Cc1ccccc1Cl (stereo not drawn)	-10	-1.5	3	2.9%	·	-2	·
Cc1nn2c(-c3ccc(Cl)cc3Cl)nnc2s1	-4	-2.7	3	2.7%	10%	0	5
Cc1ccc(CS(=O)Cc2ccc(C(=O)NCc3cccs3)o2)cc1 (stereo not drawn)	-1	4.2	4	-0.7%	4%	2	-5
CN1CCN(S(=O)(=O)c2ccc(C#N)cc2)C(c2ccccc2)C1 (stereo not drawn)	-3	6.3	13	-0.2%	·	3	-4
COc1ccc(/C=C2\CN(Cc3ccccc3)C/C(=C\c3ccc(OC)cc3OC)C2=O)c(OC)c1	23	-1.3	-3	0.6%	?	-15	6
O=C(Cn1cc(/C=N/NC(=O)c2cccc3ccccc23)c2ccccc21)Nc1ccc(F)cc1	-6	4.6	4	5.3%	21%	-4	8
COc1cccc(CC2(CO)CCN(Cc3ccc(NC(C)=O)cc3)CC2)c1	-15	-4.5	7	-1.5%	13%	-3	5
CC(C)c1nnc(SCC(=O)N2CCc3ccccc32)n1C	-6	-1.0	-5	-3.6%	12%	4	-8
Cc1ccccc1OCCC(=O)Nc1c(C)n(C)n(-c2ccccc2)c1=O	-10	-0.7	0	2.6%	13%	7	-9

Next results follow:
structure	D2 potentiator	D2 ag	CtBP-E1A inh	PINK1 expr mod	Sfp inh	Six1-Eya2 inh	TRPV1 PAM
O=C(c1nnsc1S(=O)c1ccc(Cl)cc1)N1CCOCC1 (stereo not drawn)	-25	-4.8	-6	-1.0%	56µM*	-3	10
CSc1nc(-c2ccccc2)nc(C(C)C)n1	-5	-2.0	·	7.3%	·	19	5
CCn1c(SCC(=O)N2CCc3ccccc32)nnc1-c1ccncc1	3	-0.8	0	-1.4%	23%	3	9
Cc1cc(Oc2ccc(=O)n(C)n2)nc(Oc2ccc(=O)n(C)n2)n1	-4	-1.6	-4	-0.6%	9%	5	3
Cc1cc(C)nc(SCC(=O)NN=Cc2ccc(C)o2)n1	-3	-2.1	-4	-0.7%	·	-2	·
CN(C)c1nn(C(=O)Nc2ccc(Cl)cc2Cl)cc1-c1ccccc1	-12	-5.2	-8	0.2%	-15%	6	-8
CC(C)(C)NC(=O)CN(C(=O)CNC(=O)c1cccs1)c1ccc2c(c1)OCCO2	-11	0.1	5	4.7%[38.3 µM]	8%	-4	4
Cc1ccc(NC(=O)CNc2cccc(S(=O)(=O)N3CCOCC3)c2)cc1F	7	3.6	-4	4.0%	·	-3	-16
Cc1nc(SCc2ccccc2)[nH]c(=O)c1CC(=O)OCC(C)C	2	5.6	·	0.4%	8%	-2	-16
COc1ccc(Cl)cc1NC(=O)CN1CCc2ccccc21	-5	-1.9	-7	7.2%	-7%	-13	-3
COc1cc(NC(=O)CSc2nc3cc(C)ccc3cc2C)c(C(=O)O)cc1OC	?	2.8	2	-1.1%	-24%	0	-13
O=C(CCNC(=O)c1ccc([N+](=O)[O-])cc1)NCCc1ccc(Cl)cc1	1	7.3	5	-0.6%	17%	3	-6
CC(Cc1ccccc1)C(=O)N(C)Cc1cccnc1 (stereo not drawn)	-7	-1.9	1	-0.5%	-3%	1	-4
c1cncc(-c2nc(N3CCOCC3)c3ccccc3n2)c1	-16	-1.1	4	·	5%	2	17
O=c1[nH]c2cc3c(cc2cc1CN(CCO)S(=O)(=O)c1ccccc1)OCCO3	-7	-2.6	-6	-0.6%	22%	9	-3

Next structures
structure	D2 potentiator	D2 ag	CtBP-E1A inh	PINK1 expr mod	Sfp inh	Six1-Eya2 inh	TRPV1 PAM
CC(=O)N1N=C(c2ccc(C)o2)CC1c1ccc(F)cc1 (stereo not drawn)	8	-2.3	6	0.8%	-8%	1	-6
Cc1ccn2c(=O)nc(SCC(=O)N3N=C(c4cccs4)CC3c3ccc(F)cc3)nc2c1 (stereo not drawn)	-17	-4.5	-4	3.6%	·	-20	-2
Cc1ccc(C)c(NC(=S)NCCCN2CCOCC2)c1	-3	-2.2	8	1.1%	9%	-12	-9
Cc1ccc(OCC(=O)NNC(=O)CSc2ncnc3sc(C)c(C)c23)cc1	-1	-5.4	1	11%	7%	4	-2
COc1ccc(CCN(C)C(=O)CCNC(=O)c2ccc(Br)cc2)cc1OC	-12	-2.9	-1	3.7%	15%	1	-4
O=C(/C=C/c1ccco1)NC(=S)Nc1ccccc1O	-6	-6.8	·	5.2%	-54%	-8	9
O=C(OCc1nnc(-c2cccs2)o1)C1=NN(c2ccccc2)C(=O)CC1	9	0.5	·	5.1%	·	0	6
Cc1ccc(S(=O)(=O)N(C)CC(=O)O/N=C(\N)c2ccccn2)cc1	9	-0.3	-1	-0.8%	12%	1	-6
O=C(CN(C(=O)c1csnn1)c1ccccc1Cl)NCCc1ccccc1	-6	-1.0	-3	-1.3%	9%	-1	-8
O=C(O)CCCC(=O)N1N=C(c2ccco2)CC1c1ccco1 (stereo not drawn)	-18	-2.1	·	1.3%	5%	6	10
CS(=O)(=O)N1CCN(c2ccc(C(=O)N3CCOCC3)cc2[N+](=O)[O-])CC1	-13	1.8	·	0.1%	14%	1	-1
Cc1ccc(S(=O)(=O)N2CCC(C(=O)Nc3ccc4c(c3)COC4=O)CC2)cc1	-2	-0.2	0	4.1%[38.3 µM]	12%	-19	24
C=CCn1c(CNC(=O)c2ccccc2F)nnc1SCC(=O)NC(C)c1ccccc1 (stereo not drawn)	-3	-0.2	-20	0.1%	11%	-1	2
O=c1c2c(nc3n1CCCCC3)-c1ccccc1CC21CCCCC1	-17	-2.1	6	2.8%[38.3 µM]	3%	-1	1
NC(=O)NC(=O)CN1c2cccc3cccc(c23)S1(=O)=O	7	11	7	3.6%	-8%	-2	-19

More records follow:
structure	D2 potentiator	D2 ag	CtBP-E1A inh	PINK1 expr mod	Sfp inh	Six1-Eya2 inh	TRPV1 PAM
COc1ccccc1OC(C)C(=O)N1CCC(Cc2ccccc2)CC1 (stereo not drawn)	-3	-1.0	0	-2.6%	5%	1	-3
CCOc1ccccc1NC(=O)N1CCC(c2nc3ccccc3[nH]2)CC1	-17	-0.1	1	?	11%	2	4
COc1ccc(N(C(=O)c2snc(C(N)=O)c2N)C(C(=O)NCc2ccccc2)c2ccc(F)cc2)c(OC)c1 (stereo not drawn)	-6	2.5	2	7.3%	16%	-3	-9
COc1cc(CN2CC(C)CC(C)C2)cc([N+](=O)[O-])c1O (stereo not drawn)	-7	-3.3	13	0.7%	-8%	22	1
Cc1onc(C(=O)Nc2ccc(OC(F)(F)F)cc2)c1[N+](=O)[O-]	-7	1.2	2	0.5%	-1%	2	-9
ClC(CCN1CCN(Cc2ccccc2)CC1)c1ccccc1 (stereo not drawn)	-19	0.4	0	-0.5%	·	11	·
C=CCN1C(=O)/C(=C\C=C2\N(C)c3ccccc3C2(C)C)SC1=S	-2	-2.5	-25	8.0%	-16%	2	13
CCn1c(SCC(=O)OC2CCCCC2)nc2ccccc2c1=O	-37	-2.8	19	23%	-29%	7	-11
CS(=O)(=O)CCC(C(=O)OCc1ccc(Br)cc1)N1C(=O)c2ccccc2C1=O (stereo not drawn)	-8	-0.5	-5	-0.1%	5%	-1	10
O=C(Nc1ccc(S(=O)(=O)N2CCOCC2)cc1)C1CCN(S(=O)(=O)c2ccccc2)CC1	-20	-1.6	8	0.8%	·	-4	0
CCc1nc2ccccc2n1CC1CC1(Cl)Cl (stereo not drawn)	-5	-2.2	14	-0.1%	-2%	0	-2
O=C(Nc1nnc(-c2ccc3c(c2)CCCC3)o1)c1ccccc1Cl	-4	-5.6	-13	-0.5%	27%	-8	5
COC(=O)C1CCCCN1C(=O)CCc1nnc(CCc2c[nH]c3ccccc23)o1 (stereo not drawn)	3	-2.8	-3	1.6%	8%	0	-5
CCCCCCOc1ccc(C(=O)O)cc1C#N	-6	-1.0	0	0.6%	14%	8	6
Cc1ccc(C)c(N2CN(Cc3cccnc3)CNC2=S)c1	-22	-3.8	-4	6.1%	16%	7	-2

New compounds follow
structure	D2 potentiator	D2 ag	CtBP-E1A inh	PINK1 expr mod	Sfp inh	Six1-Eya2 inh	TRPV1 PAM
COc1cc(C=NNC(=O)c2cccnc2)ccc1OC(=O)c1ccccc1F	7	5.5	-1	5.3%	·	-2	·
CSc1nc(-c2ccccc2)nc2c1COC(C)(C)C2	-16	-7.8	12	4.4%	-26%	8	-22
CN(C)c1cccc(C(=O)NNC(=O)CN2C(=O)C3CC=CCC3C2=O)c1 (stereo not drawn)	-7	3.1	3	0.5%	·	-1	·
COc1ccc(C(=O)Nc2nc(-c3ccc([N+](=O)[O-])cc3)c(-c3ccc(OC)cc3)s2)cc1	-3	-1.1	6	1.9%	16%	10	-6
Cc1cccc(C(=O)NCC2CCCO2)c1 (stereo not drawn)	-1	0.5	5	0.0%	20%	-2	-3
CCc1ccc(C(CC(=O)c2ccc(Cl)cc2)C(=O)O)cc1 (stereo not drawn)	-4	-0.5	17	0.3%	16%	6	·

Complete entries from above. Order of screens: D2 potentiator | D2 ag | CtBP-E1A inh | PINK1 expr mod | Sfp inh | Six1-Eya2 inh | TRPV1 PAM
Listed for `COc1cc(C=NNC(=O)c2cccnc2)ccc1OC(=O)c1ccccc1F` → 7 | 5.5 | -1 | 5.3% | · | -2 | ·
Listed for `COc1ccc(C(=O)Nc2nc(-c3ccc([N+](=O)[O-])cc3)c(-c3ccc(OC)cc3)s2)cc1` → -3 | -1.1 | 6 | 1.9% | 16% | 10 | -6

Not a hit list. Share with any hit: about 3.7%.
